Rango dissoc inh: inhibitors of RanGTP-induced Rango-importin beta complex dissociation; O95149+P62826; Biochemical FRET Rango-importin beta, RanGTP-induced dissociation; Potency, µM (titrated, usually from 46.1 µM), inactives show at the highest dose activity change, negative = inhibition; 340,000 tested, 0.071% active; AID 540253; active means falling FRET ratio curve, often poorly fitted, with flat reads before Ran was added; inconclusive means other falling curves, or compound fluorescence or quenching; inactive means flat or rising ratio curve;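 further: potency means the concentration at half of the fitted maximal effect; % of control where 0% means no effect; nearly all actives have a fitted effect of over 45% in size; -100% = wells without RanGTP and RCC1; the record marks most hits as doubtful in a second field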
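FRET read at 45 min, room temperature: inhibitors block the CFP/YFP signal rise when RanGTP (0.6 uM Ran, 2 mM GTP, 0.2 uM RCC1) frees Rango (0.1 uM) from importin beta (0.25 uM). Pre-read after 5 min compound exposure flags interference.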
GLA inh pH 4.5: blocks human alpha-galactosidase A at pH 4.5; activity change, negative = inhibition, % at 105 µM; AID 1467; 230,000 tested, under 10 active; purified enzyme, 4-MU-alpha-Gal fluorescence, pH 4.5; P06280; inconclusive = small, poorly fitted or top-dose-only inhibition, or a rising curve; inactive = flat fitted curve, though single readings scatter; no compound was filed as active;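 further: 0% = full activity with enzyme and -100% = basal without enzyme; dose as in the result columns while the protocol names 77 µM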
miR-21 reporter: raises the signal of a miR-21 reporter. HeLa miR-21 FLuc reporter, luciferase, 48 h. 340,000 tested, under 10 active. Potency, µM (series often up to 38.3 µM), inactives show top-dose reporter change, positive = more light; active = well fitted rising curve with a large enough effect; inconclusive = small, poorly fitted or top-dose-only effect; inactive = no such curve, though single readings can be large or run the other way;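 further: % of control where 0% means no effect; miR-21 action dims this reporter so a rising signal means less miR-21 action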
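HeLa cells endogenously expressing miR-21, stably carrying CMV-driven firefly luciferase with a downstream miR-21 binding site, 2000 cells/well. Titrations up to approximately 40 uM, 48 hours; luciferase luminescence read.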
Rango complex inh: inhibitors of Rango-importin beta complex formation; Q14974; Potency, µM (doses to about 92.2 µM), for the others: at the top dose inhibition of complex formation; 340,000 tested, 0.031% active; Rango CFP/YFP FRET sensor + importin beta, 45 min; active = rising FRET ratio curve, often small or poorly fitted; inconclusive = mostly compound fluorescence or quenching in the first reads; inactive = flat curves in all reads;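 further: potency means the concentration at half of the fitted maximal effect; 0% = DMSO wells and 100% = buffer wells lacking importin beta; nearly all actives have a fitted effect of over 15% in size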
Target sequence (Q14974 whole entry, looked up): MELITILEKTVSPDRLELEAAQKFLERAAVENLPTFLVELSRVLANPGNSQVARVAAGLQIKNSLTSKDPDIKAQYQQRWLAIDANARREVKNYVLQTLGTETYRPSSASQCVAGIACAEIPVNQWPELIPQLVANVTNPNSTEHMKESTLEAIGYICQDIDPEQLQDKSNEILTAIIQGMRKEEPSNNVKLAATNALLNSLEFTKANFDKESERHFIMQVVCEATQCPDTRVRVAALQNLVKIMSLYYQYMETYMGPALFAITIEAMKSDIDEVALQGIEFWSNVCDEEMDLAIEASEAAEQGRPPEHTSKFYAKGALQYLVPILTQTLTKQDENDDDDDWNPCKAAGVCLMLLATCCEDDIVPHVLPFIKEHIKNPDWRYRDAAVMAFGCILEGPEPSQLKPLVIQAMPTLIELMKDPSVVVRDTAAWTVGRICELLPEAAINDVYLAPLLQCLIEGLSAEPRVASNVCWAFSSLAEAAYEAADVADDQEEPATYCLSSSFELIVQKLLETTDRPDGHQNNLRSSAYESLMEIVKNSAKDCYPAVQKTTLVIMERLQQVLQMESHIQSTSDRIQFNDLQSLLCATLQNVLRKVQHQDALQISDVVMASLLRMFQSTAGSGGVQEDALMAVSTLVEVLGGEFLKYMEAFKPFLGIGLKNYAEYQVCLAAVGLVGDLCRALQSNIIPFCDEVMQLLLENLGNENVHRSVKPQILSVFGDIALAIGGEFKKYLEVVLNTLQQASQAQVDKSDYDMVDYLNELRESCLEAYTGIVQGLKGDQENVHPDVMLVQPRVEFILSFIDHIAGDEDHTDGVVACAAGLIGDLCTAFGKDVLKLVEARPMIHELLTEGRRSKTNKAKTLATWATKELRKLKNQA
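FRET biosensor (snurportin 1 IBB flanked by EYFP and cerulean), 50 nM, with compound 5 min, then 0.125 microM importin beta in PBS, 1 mM DTT, 0.02% Tween-20, 0.1% BSA. CFP/YFP ratio read after 45 min at room temperature; pre-read flags interference.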
The depositor's hits bear a star; ? = inconclusive; . = no result given; & = joins results of further samples.

Letter code – A = Rango dissoc inh; B = GLA inh pH 4.5; C = miR-21 reporter; D = Rango complex inh
smiles: CC(=O)C1=C(O)C(=O)N(c2cc(C(C)(C)C)on2)C1c1ccc(C(C)C)cc1 (stereo unspecified)
  A: 9%; B: -5; C: -13%; D: 3.6%

smiles: O=C(NCC(c1cccs1)N1CCOCC1)c1cn(-c2ccccc2)nc1-c1ccc(Cl)cc1 (stereo unspecified)
  A: 3%; B: .; C: .; D: -1.4%

smiles: CCOC(=O)CN1N=C(/C=C/c2ccc(OCC)cc2)CCC1=O
  A: 14%; B: -3; C: -22%; D: 1.6%

smiles: O=C(COC(=O)c1ccc(O)cc1O)c1ccc(Cl)cc1
  A: 4%; B: .; C: .; D: -0.7%

smiles: CCCSc1nc2c(c(=O)n(C)c(=O)n2C)n1Cc1ccc(C)cc1
  A: -6%; B: -2; C: -2%; D: -2.5%

smiles: C=CCN(CC=C)CCCOc1ccc(Br)cc1Cl
  A: -7%; B: 1; C: -8%; D: -0.1%

smiles: CSc1nc2nc3c(cc2c(=O)n1-c1ccc(C)cc1)COC(C)(C)C3
  A: 0%; B: -9; C: -5%; D: 0.5%

smiles: Cc1cccc(NC(=O)C2CC(O)CN2C(=O)OCc2ccccc2)c1 (stereo unspecified)
  A: 6%; B: 7; C: -2%; D: -3.9%

smiles: COc1ccc(C2=NS(=O)(=O)N(C)C(C(=O)N3CCCCC3)=C2)cc1OC
  A: 1%; B: .; C: 3%; D: -3.0%

smiles: Cc1ccc(CS(=O)(=O)CCC(=O)NC2CC2)cc1
  A: -13%; B: 7; C: 1%; D: -0.3%

In the list so far, three contain a halogen:
Letter code – A = Rango dissoc inh; B = GLA inh pH 4.5; C = miR-21 reporter; D = Rango complex inh
smiles: O=C(NCC(c1cccs1)N1CCOCC1)c1cn(-c2ccccc2)nc1-c1ccc(Cl)cc1 (stereo unspecified)
  A: 3%; B: .; C: .; D: -1.4%

smiles: O=C(COC(=O)c1ccc(O)cc1O)c1ccc(Cl)cc1
  A: 4%; B: .; C: .; D: -0.7%

smiles: C=CCN(CC=C)CCCOc1ccc(Br)cc1Cl
  A: -7%; B: 1; C: -8%; D: -0.1%

Additional entries
Letter code – A = Rango dissoc inh; B = GLA inh pH 4.5; C = miR-21 reporter; D = Rango complex inh
smiles: CCc1ccc(-c2nc(CS(=O)CC(=O)NCc3ccccc3)c(C)o2)cc1 (stereo unspecified)
  A: 4%; B: .; C: -2%; D: 3.6%

smiles: COc1ccc(CNC(=O)C2CCCN(Cc3nc(-c4cccc(C)c4)oc3C)C2)cc1 (stereo unspecified)
  A: 16%; B: -5; C: 25%; D: -0.4%

smiles: C/C(N)=C(/C#N)C(=O)CN1CCCCC1
  A: 2%; B: 4; C: -4%; D: 1.6%

smiles: O=C1Nc2ccccc2C(O)(C(=O)NCc2ccc3c(c2)OCO3)N1c1ccc(Cl)c(Cl)c1 (stereo unspecified)
  A: 1%; B: 1; C: -6%; D: -0.9%

smiles: COc1ccc(CCNC(=O)/C=C/c2ccc3ccccc3n2)cc1OC
  A: -2%; B: .; C: ?; D: ?

smiles: O=C(CCCOc1ccccc1)N1CCN(C(=O)c2ccco2)CC1
  A: 13%; B: -5; C: -34%; D: 1.0%

smiles: CNC(=O)c1cnn(-c2nc(-c3ccc(OC)cc3)cs2)c1C(F)(F)F
  A: -10%; B: .; C: 1%; D: ?

smiles: COc1ccc(S(=O)(=O)N2CCC(O)(c3ccc(Cl)cc3)CC2)cc1
  A: 15%; B: -12; C: 20%; D: -1.8%

smiles: O=C(Cn1nc(-c2cccc([N+](=O)[O-])c2)c2ccccc2c1=O)Nc1cccnc1
  A: -5%; B: 1; C: -7%; D: 3.3%

smiles: CCCCOc1ccc(NC(=O)Nc2nnc(C)s2)cc1
  A: ?; B: -1; C: -11%; D: ?

smiles: Cc1ccccc1C(=O)OC1OC(=O)C(Cl)=C1N1CCOCC1 (stereo unspecified)
  A: 18%; B: -1; C: -1%; D: -1.4%

smiles: CC(=O)N(C(C)=O)c1nc(-c2ccccc2)cn1/N=C/c1cccc([N+](=O)[O-])c1
  A: 31%; B: -9; C: 3%; D: -0.4%

smiles: CC(C)c1ccc(/C=C/c2ccc(=O)n(C)n2)cc1
  A: 5%; B: 4; C: -53%; D: 6.3%

smiles: C/C(=N\O)c1ccc(N2C(=O)C3CC=C(Cl)CC3C2=O)cc1 (stereo unspecified)
  A: 1%; B: -1; C: -82%; D: -3.3%

smiles: CC1(C)CC(=O)C(C(C2=C(O)CC(C)(C)CC2=O)c2cccs2)C(=O)C1 (stereo unspecified)
  A: -8%; B: 7; C: -4%; D: 2.3%

smiles: Cc1cnc(C(=O)OCC(=O)Nc2sc3c(c2C(N)=O)CCCC3)cn1
  A: 11%; B: .; C: .; D: -3.0%

smiles: O=C(CNCc1ccco1)Nc1ccc(N2CCCCCC2)cc1
  A: -2%; B: -3; C: -23%; D: 2.3%

smiles: CCCCn1c(-c2ccc(Cl)cc2)nc2c(=O)n(C)c(=O)[nH]c21
  A: ?; B: -1; C: -5%; D: ?

smiles: Nc1ncccc1C(=O)OCC(=O)NC1CCCCCC1
  A: -2%; B: .; C: .; D: ?

smiles: CCc1cc(C(=O)OC)c(NC(=O)CCCC(=O)O)s1
  A: -5%; B: 9; C: -1%; D: -1.9%

smiles: O=C1Nc2ccccc2C12OCCO2
  A: -11%; B: 2; C: -5%; D: 1.7%

smiles: O=C(NCc1ccccc1)c1ccc(F)c(F)c1
  A: 7%; B: 5; C: -6%; D: 1.2%

smiles: O=C(CN1C(=O)c2ccccc2C1=O)OCC(=O)c1ccccc1
  A: -7%; B: .; C: .; D: -1.8%

smiles: COc1ccccc1OCC(=O)Nc1ccccc1C(=O)NCc1ccco1
  A: -7%; B: -2; C: -7%; D: 2.5%

smiles: CC(=C/c1ccccc1)/C=C1/SC(N2CCOCC2)=NC1=O
  A: -3%; B: -5; C: -38%; D: 0.6%

smiles: O=C(O)c1cc2ccccc2cc1Nc1ccccc1
  A: -4%; B: 7; C: 5%; D: 4.7%

smiles: COc1cc(CC2COC(=O)C2(O)Cc2ccc(O)c(OC)c2)ccc1O (stereo unspecified)
  A: -14%; B: 5; C: 22%; D: -2.8%

smiles: CCOC(=O)C1CCN(CCCSc2ccc(C)cc2)CC1
  A: 3%; B: .; C: .; D: 3.0%

smiles: O=C(c1ccccc1NS(=O)(=O)c1cccc(C(F)(F)F)c1)N1CCc2ccccc21
  A: 3%; B: -5; C: 0%; D: -4.0%

smiles: Cc1ccc(C2C3=C(CCCC3=O)Nc3[nH]c(=S)[nH]c(=O)c32)cc1 (stereo unspecified)
  A: -9%; B: 4; C: -3%; D: -0.4%

smiles: COc1ccc(C(=O)CSc2nncn2C)cc1
  A: 11%; B: -2; C: -9%; D: -3.0%

smiles: COc1ccccc1C(=O)COC(=O)c1nc(Cl)ccc1Cl
  A: 2%; B: .; C: .; D: 0.5%

smiles: CN(CCCNC(=O)CCc1cn(C)c2ccccc12)C1CCCCC1
  A: -15%; B: .; C: -3%; D: 4.1%

smiles: CCOC(=O)COc1ccc2c(c1)c(C(=O)OCC)c(C)n2CC
  A: 5%; B: -1; C: -3%; D: -0.9%

smiles: CN(C)C(=O)CCCCCCCCC(=O)N(C)C
  A: 17%; B: 8; C: -6%; D: 0.2%

smiles: O=C(Nc1cnccn1)c1cccnc1
  A: -17%; B: -3; C: 0%; D: -0.6%

smiles: CC(C)(C)OC(=O)N1CCC2(CC1)C(C#N)=C(N)OC1=C2C(=O)CCC1
  A: 9%; B: 4; C: 1%; D: -2.2%

smiles: CCOC(=O)C=C(OC(=O)c1ccc(OC)cc1)c1ccccc1
  A: -8%; B: .; C: .; D: 1.5%

smiles: COc1cccc(CNC(=O)CCCn2nc(C)n3c(cc4sccc43)c2=O)c1
  A: 4%; B: .; C: -1%&2%; D: 0.2%

smiles: O=C(CN1C(=O)NC2(CCc3ccccc32)C1=O)Nc1cc(C(F)(F)F)ccc1N1CCOCC1 (stereo unspecified)
  A: -15%; B: -3; C: -16%; D: 4.5%

smiles: COc1ccc(NC(=O)c2scc(S(=O)(=O)C(C)C)c2N)cc1
  A: -19%; B: 4; C: -41%; D: ?

smiles: CSC1=NCCN1C(=O)c1cccc(C(F)(F)F)c1
  A: 0%; B: 3; C: -2%; D: 0.5%

smiles: CCNC(=O)C(=O)NCCc1ccc(Cl)cc1
  A: 1%; B: 5; C: -6%; D: 0.6%

smiles: CN(Cc1ccccc1)S(=O)(=O)c1nnc(NC(=O)c2ccccc2F)s1
  A: -6%; B: .; C: -3%; D: -3.1%

smiles: CC1CCCCC1NC(=O)c1ccc(S(=O)(=O)N2CCN(C)CC2)cc1 (stereo unspecified)
  A: -1%; B: .; C: -5%; D: 3.8%

smiles: Cn1c(SCC(=O)Nc2ccccc2F)nnc1-c1cccs1
  A: -3%; B: .; C: -27%; D: -0.7%

smiles: O=C(NCc1ccc(F)cc1)C1CC(=O)N(C2CCCC2)C1 (stereo unspecified)
  A: -1%; B: .; C: .; D: -0.8%

smiles: CCN1CCN(c2cc(C)c3cc(NC(=S)N4CCCCC4)ccc3n2)CC1
  A: 0%; B: 7; C: -5%; D: 0.6%

smiles: CC(=O)c1cccc(NC(=O)CCNC(=O)c2ccccc2Cl)c1
  A: -3%; B: .; C: 1%; D: -1.4%

smiles: Cc1ccc(S(=O)(=O)NC(CC(=O)NCC2CCCO2)c2ccccc2)cc1 (stereo unspecified)
  A: 12%; B: 6; C: 0%; D: 2.6%

(more compounds)
Letter code – A = Rango dissoc inh; B = GLA inh pH 4.5; C = miR-21 reporter; D = Rango complex inh
smiles: COc1ccc(S(=O)(=O)NCc2ccc(C(=O)NCCCN3CC(C)CC(C)C3)cc2)cc1 (stereo unspecified)
  A: 7%; B: .; C: -1%; D: -2.4%

smiles: Cc1ccc(S(=O)(=O)Nc2ccc3[nH]ccc3c2)cc1
  A: 0%; B: .; C: -1%; D: ?

smiles: CCN1C(=O)/C(=C\C(=O)c2cccs2)c2cc(Br)ccc21
  A: -20%; B: -7; C: -1%; D: -4.2%

smiles: COC(=O)Nc1nnc(Cc2ccc(Cl)cc2)s1
  A: 6%; B: 18; C: -11%; D: -1.3%

smiles: Cc1ccc(-n2c(SCC(=O)Nc3ccc4c5c(cccc35)CC4)nc(O)cc2=O)cc1
  A: -5%; B: -10; C: 0%; D: 2.9%

smiles: COc1cccc(NC(=O)CN(C)C(=O)CSCc2nc3scc(-c4cccs4)c3c(=O)[nH]2)c1
  A: -6%; B: .; C: .; D: 1.1%

smiles: O=C(O)CC(NC(=O)Nc1ccccc1)c1ccc(OC2CCCC2)cc1 (stereo unspecified)
  A: 0%; B: 4; C: -2%; D: -0.7%

smiles: Cc1cc(N2CCN(c3ccccc3)CC2)nc(N)n1
  A: 2%; B: 1; C: -10%; D: 0.2%

smiles: COc1cccc(CNS(=O)(=O)c2cn(C)cn2)c1
  A: -3%; B: -11; C: -5%; D: 0.1%

smiles: O=C(CCc1nc(-c2ccc(F)cc2)no1)NCc1ccccc1CN1CCOCC1
  A: 12%; B: .; C: .; D: 0.3%

Just Rango dissoc inh (2 entries from above):
molecule,Rango dissoc inh
COc1ccc(S(=O)(=O)NCc2ccc(C(=O)NCCCN3CC(C)CC(C)C3)cc2)cc1 (stereo unspecified),7%
CCN1C(=O)/C(=C\C(=O)c2cccs2)c2cc(Br)ccc21,-20%

Next entries follow.
Letter code – A = Rango dissoc inh; B = GLA inh pH 4.5; C = miR-21 reporter; D = Rango complex inh
smiles: Cc1ccc(C2(O)CN(c3ccccc3C)C3=[N+]2CCS3)cc1 (stereo unspecified)
  A: -16%; B: 1; C: -1%; D: -3.9%

smiles: COc1cc(S(=O)(=O)N2CCCCC2)ccc1NC(=O)c1ccccc1Cl
  A: 11%; B: -3; C: -3%; D: 0.0%

smiles: CCOc1ccc(NC(=O)CSc2nc3ccccc3nc2N2CCOCC2)cc1
  A: 0%; B: .; C: -5%&-6%; D: -2.6%

smiles: COc1ccccc1NC(=O)C[n+]1ccccc1
  A: 8%; B: 2; C: 7%; D: -2.3%

smiles: CCOc1cc(N2CCOCC2)c(OCC)cc1NC(=O)Cc1cccc2ccccc12
  A: -9%; B: -1; C: -6%; D: -1.0%

smiles: O=C(COC(=O)c1ccc(S(=O)(=O)NCc2ccco2)cc1)NC1CCCCC1
  A: 0%; B: 6; C: 0%; D: 0.2%

Bioassay records deposited in PubChem BioAssay by National Center for Advancing Translational Sciences (NCATS).

The list is partial. The share of hits here may be higher or lower than overall.
